Screens deposited in PubChem BioAssay by several laboratories.
AF4-AF9 inh – MLL-AF4/AF9 protein interaction inhibition; AlphaScreen, biotin-AF4 peptide binding to FLAG-AF9; inhibition, % at 10 µM; P42568; AID 651704; 350,000 tested, 0.47% active;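 active = every replicate reaching a set inhibition limit, whatever the replicate mean, cut at about 25% in these data; inconclusive = mean inhibition reaches that limit but some replicates miss it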;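 note: 0% = plate neutral control median and 100% = total signal loss; the record names both 10 and 1 µM as test concentration; the first replicate is given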
Target sequence (P42568 whole entry, looked up): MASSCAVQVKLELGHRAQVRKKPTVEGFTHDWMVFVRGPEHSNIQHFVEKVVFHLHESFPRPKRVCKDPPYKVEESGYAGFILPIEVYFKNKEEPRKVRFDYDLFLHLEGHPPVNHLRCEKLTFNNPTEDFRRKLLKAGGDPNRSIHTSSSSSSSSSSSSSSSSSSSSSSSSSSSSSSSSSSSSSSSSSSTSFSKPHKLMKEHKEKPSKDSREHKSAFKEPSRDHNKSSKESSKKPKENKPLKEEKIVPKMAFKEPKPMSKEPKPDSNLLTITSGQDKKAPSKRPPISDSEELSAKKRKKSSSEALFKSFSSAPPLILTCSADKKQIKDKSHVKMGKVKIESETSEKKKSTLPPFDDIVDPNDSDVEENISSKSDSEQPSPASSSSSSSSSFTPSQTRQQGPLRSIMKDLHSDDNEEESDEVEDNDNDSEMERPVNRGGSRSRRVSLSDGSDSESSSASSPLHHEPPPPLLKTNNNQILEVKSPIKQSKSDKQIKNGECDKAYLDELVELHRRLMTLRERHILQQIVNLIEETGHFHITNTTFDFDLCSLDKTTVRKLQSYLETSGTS
rRNA inh HTS – selective bacterial rRNA inhibition in E. coli; E. coli WT GFP vs humanized-ribosome RFP mutants, fluorescence, 24 h; active compounds read low; DMSO median 0, no signal -100; GFP signal change (wild-type ribosome), % (concentration not given with the values); 350,000 tested, 1.6% active;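 active = significant combined selectivity score with lowered wild-type GFP, culture density cut under 30%, mutant RFP and density less affected; inactive = any of these conditions unmet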; note: one replicate is shown; some compounds called inactive have numbers as strong as hits
Calb FLC – affects C. albicans growth with fluconazole | C. albicans CaCi-2 (fluconazole-resistant clinical isolate) + fluconazole, Alamar Blue growth, 48 h | AID 1979 | 300,000 tested, 0.57% active | growth inhibition, % (concentration not given with the values);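 active = most replicates above 75%; inconclusive = exactly half above 75%; inactive = most below 75%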;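 note: all wells also contain fluconazole at 8 µg/ml as a sub-toxic cotreatment; 0% = median of DMSO wells and 100% = median of geldanamycin control wells; wells of about 8 µL received 7.5 nL stock; the first replicate is given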
RanGTP-Imp inh – disruptors of Ran-importin-beta complex formation – biochemical, FRET, CFP-Ran, YFP-importin-beta, homogeneous, primary screen; cell-free CFP-Ran/YFP-importin-beta FRET ratio; inhibition, % (test concentration not listed); 300,000 tested, 1.1% active;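 active = most replicates above 15%; inconclusive = exactly half above 15%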;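 note: 0% = DMSO wells and 100% = Ran loaded with GDP instead of GTP; wells of about 40 µL received 100 nL stock; the first replicate is given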
T cruzi repl – T. cruzi replication inhibition | T. cruzi beta-gal in NIH3T3, luminescence, 90 h | AID 1885 | inhibition, % (test concentration not listed) | 300,000 tested, 1.4% active;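 active = mean inhibition across valid replicates above about 55%, limit read from the data; inconclusive = mean below that limit but half or more replicates reach it; inactive = mean below it, under half of replicates reach it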;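 note: signal also drops with host cell toxicity which is not excluded here; 0% = plate median of DMSO wells and 100% = zero luminescence signal; higher percent means less beta-gal luminescence so fewer parasites; stock transfer was 50 nL into about 50 µL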
Vif TR-FRET – HIV-1 Vif–A3G interaction blockers – biochemical, TR-FRET, GST-Vif 1-94, biotin-A3G peptide, dose response retest, primary screen (AID 1117319) | one-dose inhibition, %; IC50 in µM for titrated hits | TR-FRET GST-Vif / biotin-A3G peptide binding; higher % means a stronger effect; test concentration not given here; strong numbers were not always called active | 260,000 tested, 0.57% active;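 active = above the screen mean plus three standard deviations and confirmed in dose response; inconclusive = results disagree or hit not tested in dose response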;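 note: Vif residues 1-94 fused to GST binding biotinylated APOBEC3G peptide 110-148; 0% = full assay without inhibitor and 100% = GST in place of GST-Vif; retest series ran down from 100 µM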
Bfl-1 A1 inh – inhibitors of the anti-apoptotic protein A1, read as caspase activation; MEF A1-2A-BIM cells, Caspase-Glo 3/7 luminescence, 3 h; percent of clofoctol response, vehicle zero; 330,000 tested, 0.066% active; caspase activation, % (test concentration not listed); AID 2462;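 active = over half of replicate activation scores above 10%, or exactly half above 10 with the replicate mean above 10; inconclusive = replicate mean below 10 yet half the replicates above 10; inactive = over half of replicates below 10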;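 note: wells of about 30 µL received 50 nL stock; many hits fall short of the cut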
Beta apoptosis – blocks beta cell apoptosis; 300,000 tested, 0.8% active; AID 435005; INS-1E cytokine-induced death, ATP luminescence, 48 h; percent of positive-control rescue, neutral wells zero; protection from apoptosis, % (test concentration not listed);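 active = all replicates at 75% or more, or half of them and the mean; inconclusive = half reach 75% but not the mean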;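 note: 0% = cytokine-treated negative control wells and 100% = positive control rescue; higher means more ATP so stronger rescue from cytokine killing; wells of about 40 µL received 100 nL stock; the first replicate is given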
rRNA inh HTS OD600 – also measured in rRNA inh HTS; calls as there; OD600 change, %; measured here: OD600 growth;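 optical density of the mix in the first replicate; 0 = DMSO median and -100 = no signal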
rRNA inh HTS RFP – recorded beside rRNA inh HTS, whose call it bears; RFP signal change, %; measured here: RFP humanized mutant strains;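 first replicate; 0 = DMSO median and -100 = no signal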
Starred values were filed as active, the others as inactive; u = inconclusive; x = no result given; & = joins results of further samples. Not all compounds are listed; rates above refer to the full screens.

SMILES | AF4-AF9 inh | rRNA inh HTS | rRNA inh HTS OD600 | rRNA inh HTS RFP | Calb FLC | RanGTP-Imp inh | T cruzi repl | Vif TR-FRET | Bfl-1 A1 inh | Beta apoptosis
Cc1cccc(N2CC(C(=O)Nc3nnc(SCc4cccnc4)s3)CC2=O)c1 (centres undefined) | -0.3 | -5 | -12 | 6.7 | -2 | 2.1 | 2 | 7% | -0.5 | 1
C=C(C)CN(CC)Cc1c(C(=O)N(C)CCCC)nc2ccccn12 | 0.4 | 3 | 11 | 1.5 | 3 | 8.4 | -6 | 4% | -1.9 | -4
NC(=O)C1CCN(CC(=O)Nc2ccc(S(=O)(=O)N3CCOCC3)cc2)CC1 | -3.1 | 7 | 10 | -1.9 | 6 | 0.4 | -5 | x | 1.3 | -2
CCOC1CC(C)(C)NC(=S)N1 (centres undefined) | x | x | x | x | -9 | 2.2 | -16 | -3% | -0.4 | -3
OC1CCCN(CC(O)COC(c2ccc(F)cc2)c2ccc(F)cc2)C1 (centres undefined) | -2.3 | 6 | -7 | -0.1 | -16 | 1.1 | 1 | 0% | -0.5 | -4
O=[n+]1c2c(n([O-])c3cc(F)ccc31)CCCC2 | x | x | x | x | -5 | -2.8 | -19 | 12% | 0.0 | -8
O=[N+]([O-])c1ccc(Nc2nc(N/N=C\c3ccc4c(c3)OCO4)nc(N3CCCCC3)n2)cc1 | x | x | x | x | 41 | -1.2 | 50 | 7% | -0.2 | 24
CN(CC1COCCO1)c1nc2nonc2nc1N1CCSCC1 (centres undefined) | 0.4 | 4 | 1 | -0.1 | -3 | u | -17 | u | 1.3 | 2
COc1ccc(CSc2cccc3cccnc23)cc1[N+](=O)[O-] | 4.0 | -20 | -17 | 10 | 24 | 0.6 | 8 | 0% | 0.4 | 3
CCOC(=O)c1c(C)[nH]c(/C(C)=N/O)c1C | x | x | x | x | -6 | -1.1 | -11 | 28% | -0.2 | -11
COCCNC(=O)[C@@H]1CCCN1S(=O)(=O)c1cccc2cccnc12 | -4.7 | 11 | 11 | 11 | x | x | x | x | -1.2 | -3
Cc1noc(C)c1S(=O)(=O)N1CCCC(C(=O)Nc2ccc(Cl)cn2)C1 (centres undefined) | x | x | x | x | 1 | -0.6 | -4 | -9% | 0.3 | -2
CCN(CC)S(=O)(=O)c1ccc2[nH]c(=O)[nH]c2c1 | x | x | x | x | 6 | -2.2 | -7 | 13% | -0.4 | -1
CCOC(=O)CNC(=O)C(CC(N)=O)NC(=O)OC(C)(C)C (centres undefined) | -1.2 | 7 | 14 | -3.0 | -6 | 0.7 | -5 | -7% | 0.1 | 0
O=C(Nc1ccccc1N1CCN(C(=O)c2ccc(Cl)cc2)CC1)c1cccc([N+](=O)[O-])c1 | 3.8 | 7 | -3 | 1.6 | 8 | 4.4 | 55* | x | 1.6 | 17
COc1ccc(CNC(=O)CCC(=O)n2ncc3cc(C)ccc32)cc1 | 2.0 | 13 | 15 | -1.1 | 4 | u | -4 | x | 0.3 | 2
C=CCOc1cccc(/C=N/NC(=O)C(OC)c2ccccc2)c1 (centres undefined) | -2.3 | 9 | 11 | 3.9 | 4 | -2.5 | -7 | -6% | 2.5 | -6
Cc1cccc(N2C(=O)CC(N(C(=O)c3ccco3)c3cccc(C)c3)C2=O)c1 (centres undefined) | x | x | x | x | -3 | -3.1 | -10 | 25% | -0.3 | 1
FC(F)(F)Oc1ccc(NC(=S)NCc2ccccc2)cc1 | -0.3 | -57 | -77 | -20 | -20 | 0.4 | -5 | 15% | -0.6 | -2
CS(=O)(=O)Nc1ccc(C(=O)NCCSCc2ccco2)cc1 | x | x | x | x | 5 | 3.8 | -14 | 3% | -0.2 | -4
Cc1c(C)c2ccc(OC3CCCCC3=O)cc2oc1=O (centres undefined) | x | x | x | x | 16 | 2.4 | -19 | 20% | 0.1 | -5
CCOC(=O)CSc1cc(C)nc(N)n1 | x | x | x | x | 8 | 1.6 | -8 | 2% | -0.4 | -3
NC(=O)c1ccccc1NCC(=O)c1ccc(Cl)cc1 | 0.2 | 4 | 1 | 0.7 | 5 | 2.3 | 5 | x | -0.1 | -3
COc1cc([N+](=O)[O-])ccc1NC(=O)CCN1C(=O)C2C3CCC(C3)C2C1=O (centres undefined) | -1.9 | 15 | 10 | 0.5 | 0 | -1.5 | 5 | 19% | 0.6 | -7
O=c1oc(-c2ccccc2NS(=O)(=O)c2ccc(F)cc2)nc2ccccc12 | x | -32* | -0.9* | -5.3* | 10 | 0.1 | -2 | 5% | -0.7 | -2
COc1cccc(NC(=O)CN(C)C(=O)c2ccc3c(c2)C(=O)N(CCC(C)C)C3=O)c1 | 2.0 | 9 | 8 | 4.8 | x | x | x | -10% | -1.0 | -3
COc1ccc(N2CCN(CCNC(=O)CCCn3c(=O)[nH]c4cc(Cl)ccc4c3=O)CC2)cc1 | x | x | x | x | 10 | -0.1 | -32 | 3%&-7% | -1.1 | 5
CCOc1ccc(CNCCCSc2ncccn2)cc1 | -3.0 | 13 | 4 | 1.9 | -32 | 5.5 | 55* | -1% | 1.4 | -1
CC(C)[C@H](NC(=O)c1ccco1)C(=O)OCC(=O)Nc1cccc(F)c1 | 1.8 | -1 | -7 | 0.3 | 7 | -45 | 0 | 2% | 0.7 | -2
Cc1cc(NS(=O)(=O)c2ccc(NC(=O)CCCC(=O)O)cc2)nc(C)n1 | x | x | x | x | -6 | 5.3 | -5 | u | 0.8 | -6
COc1ccc(C(NC(C)=O)c2ccc3cccnc3c2O)c(OC)c1 (centres undefined) | x | x | x | x | -3 | -3.3 | 53 | 2% | -0.5 | 109*
COc1ccccc1CN(Cc1cc2c(C)ccc(C)c2[nH]c1=O)Cc1nnnn1Cc1ccco1 | x | x | x | x | 1 | 1.8 | 5 | u | 0.6 | 19
NC(=O)c1ccsc1NC(=O)CN1C(=O)NC2(CCCC2)C1=O | 0.1 | 4 | 5 | 2.1 | x | x | x | -7% | 1.0 | -1
CC(C)CCNC(=O)CNC(=O)c1cccs1 | x | x | x | x | 2 | 3.5 | -23 | -3% | -0.5 | -8
CCCC1(C(=O)O)NC(c2ccccc2O)C2C(=O)N(c3cccc(Cl)c3)C(=O)C21 (centres undefined) | -2.8 | -1 | -1 | -3.0 | 0 | 3.3 | -16 | -4% | 0.6 | -3
S=C(NCCc1ccccc1)N1CCN(Cc2ccc(Cl)c(Cl)c2)CC1 | -11 | 7 | 13 | 5.2 | 6 | -2.0 | 47 | u | 0.1 | -1
O=C(OCc1nc2scc(-c3ccccc3)c2c(=O)[nH]1)c1cc(Cl)ccc1[N+](=O)[O-] | x | x | x | x | 0 | 0.1 | -12 | 12% | 0.2 | -1
COc1ccc(C(=O)C[n+]2ccc(-c3nnc4n3CCC4)cc2)cc1 | x | x | x | x | -16 | 4.4 | -3 | u | 0.1 | -4
Cc1ccccc1C(C(=O)NC1CCCCC1)N(C(=O)CNC(=O)c1ccco1)c1cccnc1 (centres undefined) | -3.1 | 29 | 13 | 3.1 | 0 | 1.2 | 0 | -3% | -0.2 | -3
CCc1nnc(SCc2ccc([N+](=O)[O-])cc2)nc1CC | x | x | x | x | -11 | 2.6 | -2 | x | -0.4 | -6
COc1ccc(OC)c(S(=O)(=O)N2CCN(C34CC5CC(CC(C5)C3)C4)CC2)c1 | x | x | x | x | -45 | 1.5 | 33 | 23% | 0.2 | 2
COc1cccc(NC(=O)c2cccc(C(=O)Nc3cccc(OC)c3)n2)c1 | -2.4 | 16 | 15 | 3.2 | 2 | -1.2 | -5 | x | 0.9 | 4
COc1cccc(/C=N/Nc2ccccc2C(=O)O)c1O | -0.7 | -3 | -2 | 4.0 | 10 | -3.2 | -7 | -1% | -6.1 | 7
COc1ccc(S(=O)(=O)N2CCCCCC2)cc1C(=O)Nc1cc(C)ccn1 | 1.0 | -7 | -8 | -0.9 | x | x | x | -3% | -0.2 | 1
CCOc1cccc2cc(C(=O)NCc3ccc(F)cc3)c(=N)oc12 | -3.6 | 24 | 20 | 0.7 | -3 | -2.6 | 3 | x | -0.3 | -13
Cc1cccc(NC(=O)c2ccc(CN3CCc4ccccc4C3)cc2)c1C | -2.7 | 17 | 12 | 0.9 | -4 | 1.2 | -18 | x | -0.2 | 5
CCCc1cc(C(=O)NCC(C)C)no1 | -4.0 | 8 | 17 | -2.0 | 3 | 3.5 | -18 | 6% | -0.3 | -4
O=C1CCC(Cc2ccccc2)N1 (centres undefined) | x | x | x | x | -4 | -1.3 | -20 | 6% | 0.5 | 1
CC1CC(C)CN(C(=O)COC(=O)c2ccc(N3CCCC3=O)cc2)C1 (centres undefined) | 2.6 | -1 | -4 | -4.0 | x | x | x | x | 1.1 | -3
CC1CCCCN1C(=O)c1ccc(C(=O)N2CCCCC2C)cc1 (centres undefined) | x | x | x | x | 11 | 0.7 | 4 | 4% | 0.4 | -2
CC1CCCN(CCSc2ccc(Cl)cc2)C1 (centres undefined) | u | 12 | 8 | 0.2 | -12 | -1.2 | 1 | 3% | -0.4 | -2
CC(=O)c1ccc(NS(=O)(=O)c2ccc(C)cc2)cc1 | x | x | x | x | 3 | 1.0 | 2 | 3% | 0.3 | -1
O=C(NCCc1ccc(Cl)cc1)c1ccc2c(c1)OCO2 | -3.3 | 9 | 8 | -0.6 | -19 | 0.4 | 3 | -4% | -0.7 | 3
Cc1cccc(-c2nnc(SCC(=O)NC3CCCC3)o2)c1 | -1.8 | 0 | -4 | -2.3 | -5 | -0.1 | -5 | x | x | x
COc1ccc(-c2cnc(N)nc2-c2ccc(OCc3ccccc3)cc2O)cc1 | 2.4 | 6 | 0 | 3.5 | 10 | -0.9 | 58* | -3% | 0.2 | -2
Cc1ccc2c(c1)N(CCCC(=O)NCC1COc3ccccc3O1)C(=O)CO2 (centres undefined) | x | x | x | x | 0 | 9.9 | 9 | 2% | -0.3 | -7
CC(C)c1ccc(/C=C2\CC/C(=C\C=N\N(C)C)C2=O)cc1 | x | x | x | x | 9 | -1.4 | 3 | 30% | 0.6 | 2
CC(C)(C)n1nnnc1C(c1cccs1)N(Cc1cccnc1)CC1CCCO1 (centres undefined) | x | x | x | x | -2 | 1.8 | 9 | 4% | 0.4 | -11
COc1cc(C(=O)OCC(=O)Nc2ccc(S(=O)(=O)N3CCCC3)cc2)cc(OC)c1OC | 0.6 | -6 | -9 | 3.4 | x | x | x | -3% | -0.3 | -7
COC(=O)c1cc(NC(=O)c2cc(-c3ccc(Cl)cc3)oc2C(F)(F)F)ccc1N1CCOCC1 | -2.6 | -10 | -1 | 2.3 | 2 | -0.8 | 63* | -12% | -1.0 | 0
